# GLA inh pH 4.5: qHTS Assay for Inhibitors of Human alpha-Galactosidase at pH 4.5 | Alpha-galactosidase A (Homo sapiens), P06280 | purified enzyme, 4-MU-alpha-Gal fluorescence, pH 4.5 | activity change, negative = inhibition, % at 105 µM | 230,000 tested, under 10 active | AID 1467, 2008; inconclusive = small, poorly fitted or top-dose-only inhibition, or a rising curve; inactive = flat fitted curve, though single readings scatter; no compound was filed as active;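 further: 0% = full activity with enzyme and -100% = basal without enzyme; dose as in the result columns while the protocol names 77 µM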
# Target sequence (P06280 whole entry, looked up): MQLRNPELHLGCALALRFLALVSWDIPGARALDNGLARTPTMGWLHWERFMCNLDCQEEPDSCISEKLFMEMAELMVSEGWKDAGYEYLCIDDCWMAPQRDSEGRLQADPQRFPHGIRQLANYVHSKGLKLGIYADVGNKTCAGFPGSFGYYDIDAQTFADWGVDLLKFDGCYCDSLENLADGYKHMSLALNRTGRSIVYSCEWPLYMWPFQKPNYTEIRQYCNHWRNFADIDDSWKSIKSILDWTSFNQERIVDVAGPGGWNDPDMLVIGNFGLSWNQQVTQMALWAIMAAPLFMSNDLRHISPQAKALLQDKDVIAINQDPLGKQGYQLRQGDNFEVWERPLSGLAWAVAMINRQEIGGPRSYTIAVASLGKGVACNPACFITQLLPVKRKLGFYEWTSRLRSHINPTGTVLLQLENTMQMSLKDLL
# Rango complex inh: qHTS Assay for Inhibitors of Rango (Ran-regulated importin-beta cargo) - Importin beta complex formation; Importin subunit beta-1 (Homo sapiens), Q14974; Rango CFP/YFP FRET sensor + importin beta, 45 min; Potency, µM (doses to about 92.2 µM), for the others: at the highest dose inhibition of complex formation; 0.031% of 340,000 active; AID 540263, 2011; active = rising FRET ratio curve, often small or poorly fitted; inconclusive = mostly compound fluorescence or quenching in the first reads; inactive = flat curves in all reads;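 further: potency means the concentration at half of the fitted maximal effect; 0% = DMSO wells and 100% = buffer wells lacking importin beta; nearly all actives have a fitted effect of over 15% in size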
#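 FRET biosensor (snurportin 1 IBB flanked by EYFP and cerulean), 50 nM, with compound 5 min, then 0.125 microM importin beta in PBS, 1 mM DTT, 0.02% Tween-20, 0.1% BSA. CFP/YFP ratio read after 45 min at room temperature; pre-read flags interference.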
# miR-21 FLuc: qHTS Assay for Modulators of miRNAs and/orActivators of miR-21; HeLa miR-21 FLuc reporter, luciferase, 48 h; 340,000 tested, under 10 active; AID 2288, 2010; Potency, µM (titrated, usually from 38.3 µM), for the others: top-dose reporter change, positive = more light; active = well fitted rising curve with a large enough effect; inconclusive = small, poorly fitted or top-dose-only effect; inactive = no such curve, though single readings can be large or run the other way;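 further: % of control where 0% means no effect; miR-21 action dims this reporter so a rising signal means less miR-21 action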
#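 Luminescence from a firefly luciferase reporter carrying a miR-21 binding site downstream, stably expressed under a CMV promoter in HeLa cells that make miR-21 endogenously, reports miRNA modulation after 48 h compound exposure up to approximately 40uM final.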
# Rango release inh: qHTS Assay for Inhibitors of RanGTP induced Rango (Ran-regulated importin-beta cargo) - Importin beta complex dissociation. 0.071% of 340,000 active. Snurportin-1 (Homo sapiens) + GTP-binding nuclear protein Ran (Homo sapiens) + Importin …. Biochemical FRET Rango-importin beta, RanGTP-induced dissociation. Potency, µM (series often up to 46.1 µM), for the others: at the highest dose activity change, negative = inhibition; active means falling FRET ratio curve, often poorly fitted, with flat reads before Ran was added; inconclusive means other falling curves, or compound fluorescence or quenching; inactive means flat or rising ratio curve;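 further: potency means the concentration at half of the fitted maximal effect; % of control where 0% means no effect; nearly all actives have a fitted effect of over 45% in size; -100% = wells without RanGTP and RCC1; the record marks most hits as doubtful in a second field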
#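 Compounds sat 5 min at room temperature with 0.1 uM Rango biosensor plus 0.25 uM importin beta, then FRET pre-read. RanGTP-RCC1 (0.6 uM Ran, 2mM GTP, 0.2 uM RCC1) added for 45 min, and the CFP/YFP post-read measured blocked complex dissociation.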
# * = called active by the depositor; ? = inconclusive; . = not tested or not shown; & = joins results of further samples. The list is partial (hit frequency here may not be typical).
mol	GLA inh pH 4.5	Rango release inh	miR-21 FLuc	Rango complex inh
Cc1ccc[n+](/C(C(=S)NCc2ccco2)=C(/[O-])c2ccccc2Cl)c1	3.3	6.1%	-0.4%	-0.4%
CCOC(=O)N1CCN(S(=O)(=O)c2ccc(C(=O)N(CCN(C)C)c3nc4ccc(Cl)cc4s3)cc2)CC1	.	-2.5%	-48.2%	1.6%
Cc1ccc(C)c(NC(=O)C(=O)NCCc2c[nH]c3ccccc23)c1	-3.2	1.2%	3.3%	0.4%
COc1cc(-c2cc(OC)c3c(C)oc(C)c3c(=O)c2)ccc1O	-13.3	?	-11.0%	?
COc1ccc(NCc2nnc(SCC(=O)Nc3cc(C)cc(C)c3)o2)cc1	0.7	-3.8%	-0.7%	0.3%
O=Cc1c(N2CCOCC2)nc2ccccn2c1=O	-19.7	-13.9%	-1.2%	0.8%
O=C(Nc1ccc(S(=O)(=O)N2CCOCC2)cc1)c1ccc(Cl)c([N+](=O)[O-])c1	.	-2.5%	.	1.6%
N#C/C(=N\Nc1cccc2ccccc12)c1nnc2n1CCCCC2	-2.8	-1.4%	-7.7%	-0.4%
COCCNC(=O)c1ccc(NS(C)(=O)=O)cc1	5.7	19.1%	-2.5%	-3.9%
CC(CN1CCCCC1)OC(=O)c1ccc(Cl)cc1 (stereo unspecified)	6.7	9.1%	-1.1%	0.0%
CCc1nc(C)cn1S(=O)(=O)c1ccc([N+](=O)[O-])cc1	1.9	3.6%	1.0%	0.0%
CCc1ccc(C2C3=C(CC(C)(C)CC3=O)OC3=C2C(=O)CC(C)(C)C3)cc1	-0.2	-18.1%	1.2%	0.8%
CSc1nc(-c2ccc(Cl)cc2)nn1S(=O)(=O)c1ccccc1	-4.0	-10.7%	-26.9%	1.2%
CCn1c(=S)[nH]c2ccccc21	-0.5	25.9%	-0.5%	-3.5%
Cc1ccc(N2C(=O)c3ccc(C(=O)N4CCN(c5ccccc5F)CC4)cc3C2=O)cc1	7.9	20.1%	-9.3%	4.7%
CC(=O)Nc1cccc(C(=O)OCC(=O)N2CCN(C(=O)COC(=O)c3cccc(NC(C)=O)c3)CC2)c1	.	-3.0%	.	0.7%
C=C(Br)Cn1c(CC)nc2ccccc21	-6.1	-8.8%	-2.1%	4.0%
O=C(NCc1ccco1)c1cc2nc(-c3ccc4c(c3)OCO4)cc(C(F)(F)F)n2n1	-2.4	?	-16.2%	?
CSCC[C@H](NC(=O)C1CCN(S(=O)(=O)c2ccccc2)CC1)C(=O)NC1CC1	.	4.0%	-2.0%	0.4%
CCc1c(C)sc(NC(=S)Nc2nc(C)cc(C)n2)c1C(=O)OC	-3.5	-0.1%	-0.8%	-3.2%

# Additional records follow:
mol	GLA inh pH 4.5	Rango release inh	miR-21 FLuc	Rango complex inh
CSc1cccc(NC(=O)c2ccco2)c1	-8.1	-5.9%	-36.3%	-0.4%
O=C(CCC1CCCCC1)N1CCN(Cc2ccc3c(c2)OCO3)CC1	-13.0	-3.2%	0.2%	1.2%
Clc1ccc2[nH]cc(-c3nnnn3-c3ccc4ccccc4c3)c2c1	2.2	2.8%	10.3%	-2.6%
O=C(c1cccc(S(=O)(=O)Nc2cccc(C(F)(F)F)c2)c1)N1CCCCC1	0.9	3.3%	-7.0%	2.0%
Cc1ccc(NC(=O)/C(=C\c2cccs2)NC(=O)c2ccccc2)cc1	-14.1	6.6%	-15.1%	0.5%
CCc1noc(C)c1C(=O)N1CCN(S(=O)(=O)c2ccc(C(C)=O)cc2)CC1	.	?	.	5.1%
Cc1ccc(Nc2cc(C)nc3ccc(C)cc23)cc1	.	48.4%	24.9%	3.7%
CCCN(CC(=O)Nc1ccccc1C)C(=O)c1ccc(C)c(S(=O)(=O)N2CCCCC2)c1	.	-3.5%	.	0.4%
CC(C)n1c(N2CCN(CC(=O)Nc3ccc4c(c3)OCCO4)CC2)nc2ccccc21	-7.3	-1.3%	-0.4%	4.1%
Cc1cc(=O)oc2c3c(cc(OCC(=O)NCCCn4ccnc4)c12)OC(C)(C)CC3	.	15.2%	-15.4%	0.8%
O=C1/C(=C/c2cccc(F)c2)CSc2sccc21	-4.1	-5.0%	-20.7%	0.5%
CC(=O)c1c(C)[nH]c(-c2ccccc2)nc1=S	-0.9	18.0%	1.0%	-1.7%
CN1N=C(C(=O)NC2CCCc3c2cnn3-c2ccc(F)cc2F)CCC1=O (stereo unspecified)	.	-17.9%	7.2%	3.6%
COC(=O)c1c(C)[nH]c(C(=O)/C=C/c2ccc(C)cc2)c1C	0.1	-28.6%	-8.3%	-6.8%
COC(=O)COc1ccc2c(c1)O/C(=C\c1ccco1)C2=O	.	?	-3.3%	?
CC(C)(C)NC(=O)c1cccc2c1-c1ccccc1C2=O	.	6.9%	6.5%	3.5%
CC(C)C(=O)Nc1nnc(SCC(=O)N2C(C)CCCC2C)s1 (stereo unspecified)	.	14.7%	5.4%	3.6%
Cc1cc(=S)[nH]c(=S)[nH]1	-10.1	8.0%	0.6%	5.4%
Cc1cc(/C=C(/C#N)c2nc3ccccc3[nH]2)c(C)n1-c1ccccc1C(=O)O	4.8	?	-0.7%	?
CCc1ccc(NC(=O)C(C)Sc2nnc(CN3CCCC3)o2)cc1 (stereo unspecified)	.	25.0%	.	-1.1%

# The list continues.
mol	GLA inh pH 4.5	Rango release inh	miR-21 FLuc	Rango complex inh
O=C(N/N=C/c1ccc(COc2ccc(Br)cc2)o1)c1ccc2c(c1)OCO2	.	2.4%	-2.0%	0.3%
O=C1CCN(CCc2ccccc2)CCN1CCSc1ccccc1	.	4.8%	-47.4%	-1.4%
O=C(Nc1ccccc1)c1ccc(-n2cnnn2)cc1	.	1.2%	-29.7%	?
COc1ccc(OC)c(NC(=O)C2C3CCC(C3=C(C)C)C2C(=O)O)c1 (stereo unspecified)	3.8	-17.1%	-5.9%	2.9%
Cc1cccc(NC(=O)CSc2nncn2-c2ccccn2)c1	-2.7	0.2%	-7.9%	3.6%
CC(=O)/C(=C\Nc1ccc(OCc2ccccc2)cc1)c1ccccc1	-5.3	0.6%	-10.1%	-3.0%
O=C(CN1C(=O)c2cccc3cccc(c23)C1=O)N1CCCCCC1	11.2	-12.7%	-0.8%	-0.1%
Oc1ccc(-c2ccccc2)cc1CN1CCCCCC1	.	13.0%	-9.6%	0.0%
O=C(N/N=C/c1ccoc1)c1cc(O)cc(O)c1	.	6.6%	-1.7%	-0.6%
CC(C)Oc1ccc2c3c(c(=O)oc2c1)CCC3	6.0	-7.2%	-39.9%	2.5%
O=C(N/N=C\c1ccccc1)c1cccc(C(=O)N/N=C\c2ccccc2)n1	.	2.8%	.	0.5%
COc1ccc(-c2cc(C(F)(F)F)n3nc(C(=O)N4CCCCC4)cc3n2)cc1	0.0	?	-4.5%	?
CCOC(=O)N1CCN(C(=O)/C(=C/c2ccc(N(C)C)cc2)NC(=O)c2ccccc2)CC1	.	-8.2%	.	-5.4%
CSCCC(NC(=O)c1ccccc1Cl)C(=O)NCC(c1cccs1)N(C)C (stereo unspecified)	.	-1.8%	.	-1.0%
CCOc1ncccc1C(=O)OCC(=O)c1cc(OC)c(OC)c(OC)c1	0.5	4.1%	0.2%	4.9%
COc1ccc(NC2=CC(=O)CC(c3ccccc3)C2)cc1 (stereo unspecified)	-0.5	5.6%	-14.1%	-2.6%
CCC(=O)OCCCCCCOc1ccc(C(=O)O)cc1	4.6	1.2%	-9.1%	5.3%
CCc1cc2c(=O)[nH]c(Cc3ccccc3)nc2s1	-1.5	9.2%	-16.2%	-2.5%
O=C(COC(=O)c1cnccn1)Nc1cccc(F)c1	.	-10.3%	.	-0.5%
COc1nc(OC)nc(N2CCC(NC(=O)C(Cc3ccc(C(C)C)cc3)NC(C)=O)CC2)n1 (stereo unspecified)	7.3	3.6%	5.9%	0.2%

# Going on with the list.
mol	GLA inh pH 4.5	Rango release inh	miR-21 FLuc	Rango complex inh
COc1cccc(N2C(=O)c3cccnc3C2O)c1 (stereo unspecified)	.	-16.2%	-1.4%	0.9%
O=C(NCc1ccco1)c1nn2c(C(F)(F)F)cc(-c3cccs3)nc2c1Br	-2.6	?	-6.0%	?
[O-][N+]1=c2ccc(Nc3ccccc3)cc2=NC12CCCCC2	-6.0	5.4%	?	-2.4%
O=C(NCc1ccc(Cl)cc1)C1CCC(=O)N(C2CC2)C1 (stereo unspecified)	.	-13.2%	0.7%	0.2%
Cc1cc(/C=N/n2cnnc2)c(C)n1-c1ccc(OCc2ccc(Cl)cc2)cc1	-8.7	4.3%	16.5%	4.9%
CCOC(=O)N1CCN(C(=O)C(C)N(c2ccc(Oc3ccccc3)cc2)S(C)(=O)=O)CC1 (stereo unspecified)	-3.6	-7.8%	19.6%	-2.1%
CCOC(=O)C1=CNS(=O)(=O)NC1c1ccc(C#N)cc1 (stereo unspecified)	.	-4.6%	.	-0.4%
O=C(CCc1ccccc1F)N1CCN(c2ccc(C(F)(F)F)cn2)CC1	.	1.2%	-2.9%	-0.1%
CCC(C(=O)Nc1cc(F)ccc1F)n1nc(C)c2c(C)n(-c3ccc(C)cc3)nc2c1=O (stereo unspecified)	.	11.5%	?	-1.0%
COC(=O)c1ccccc1NC(=O)C(C)c1ccc([N+](=O)[O-])cc1 (stereo unspecified)	-19.1	29.0%	-4.8%	-1.7%
Cc1ccc(-n2nnnc2SCC(=O)c2cc(C)n(CC3CCCO3)c2C)cc1 (stereo unspecified)	1.3	25.1%	-5.9%	1.1%
O=C(Nc1ccc(Cl)cc1N1CCOCC1)C1CC1	.	2.4%	-0.9%	5.7%
O=S(=O)(NCC1CN(S(=O)(=O)c2ccc3c(c2)OCCO3)C1)c1c(F)cccc1F	.	-5.7%	.	-4.3%
CSc1nc(N)c2c(n1)N(C)C=NS2(=O)=O	.	-0.1%	.	-5.4%
COc1ccc2nc(NC(=O)CSc3nnc(C)n3N)sc2c1	-7.3	3.8%	-44.7%	1.1%
O=C(N/N=C/c1ccncc1)NC1CCCCC1	6.6	0.8%	-14.6%	0.9%
CCCCn1c(N)c(N(CC(C)C)C(=O)COC(=O)C2(c3ccccc3)CC2)c(=O)[nH]c1=O	.	-18.3%	.	-4.5%
O=C1CCCN1CC(O)CS(=O)(=O)Cc1ccc(Cl)cc1 (stereo unspecified)	.	10.9%	.	1.4%
Cc1ccc(C)c(Cc2c(C)nc3c(C(=O)N4CCOCC4)cnn3c2C)c1	-4.3	-0.4%	-1.6%	-0.9%
O=C(Nc1nc(-c2ccccn2)cs1)c1cc(Cl)ccc1[N+](=O)[O-]	?	-13.3%	10.0%	-5.2%

# Another view of some results above:
GLA inh pH 4.5	Rango release inh	miR-21 FLuc	Rango complex inh	SMILES
.	-13.2%	0.7%	0.2%	O=C(NCc1ccc(Cl)cc1)C1CCC(=O)N(C2CC2)C1 (stereo unspecified)
-8.7	4.3%	16.5%	4.9%	Cc1cc(/C=N/n2cnnc2)c(C)n1-c1ccc(OCc2ccc(Cl)cc2)cc1

# (more compounds)
mol	GLA inh pH 4.5	Rango release inh	miR-21 FLuc	Rango complex inh
CCOC(=O)c1c(C)nc2sc(C(=O)Nc3ccc(OC)cc3)c(N)c2c1-c1ccc(OC)cc1	-20.1	?	-1.3%	?
O=C(COC(=O)CNC(=O)c1cccs1)Nc1ccc(C(F)(F)F)cc1[N+](=O)[O-]	.	-3.8%	.	-4.7%
CCS(=O)(=O)N1CCN(c2cnn(-c3ccccc3)c(=O)c2Cl)CC1	-5.6	-7.4%	1.8%	0.5%
Cc1ccc(NC(=O)c2ccc([N+](=O)[O-])s2)cc1S(=O)(=O)N1CCOCC1	.	-2.4%	.	2.4%
CCCCCCCCCCCCCCCCn1cc[n+](C)c1	-1.3&-10.3	?	?	65.1µM*

# Screening results deposited in PubChem by National Center for Advancing Translational Sciences (NCATS).
